Screening data from PubChem.
gsp antagonist: antagonists of gsp mutant (McCune-Albright syndrome); AID 624288; gsp-mutant cells, cAMP HTRF, 30 min; control for the full effect not named in the record; Potency, µM (titrated, usually from 76.9 µM), inactives show at the top dose activity change, negative = inhibition, most hits filed as inhibitors; actives 0.4% (n = 340,000); active = falling curve of any shape with a large fitted effect; inconclusive = falling curve, mostly with a smaller effect; inactive = flat or rising curve; cell line not stated here;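 also: intracellular cAMP measured with PDE inhibitor Ro 20-1724 present during compound exposure; potency is read from the fitted curve at half-maximal effect; % is scaled to controls: 0 for no effect and ±100 for the full control effect; nearly all actives have a fitted effect of over 65% in size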
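Cells, 2000/well, grown 16–24 h in DMEM 10% FBS with 0.5 mg/ml G418, then compounds plus […] (300 uM addition stock), 30 min at 37C. cAMP read by HTRF (cAMP-d2 and anti-cAMP antibody-K in lysis buffer) after 30 min RT.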
Sfp inh: blocks B. subtilis Sfp PPTase activity; Biochemical Sfp PPTase activity, qHTS; Q9F4F7; Potency, µM, for the others: max response, negative = inhibition, most hits filed as inhibitors; AID 1490; actives 3.5% (n = 310,000); active = well fitted inhibition curve with a large enough effect; inconclusive = small, poorly fitted or top-dose-only effect, or another doubt; inactive = no such curve, though single readings can be large or run the other way;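 also: the enzyme is Sfp with the accession as filed and its product quenches rhodamine fluorescence; potency is read from the fitted curve at half-maximal effect; 0% = enzyme reaction without inhibitor and -100% = no enzyme wells; top concentration of the series not given in the record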
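Compounds were incubated with enzyme (final 15 nM) for 15 min at room temperature before substrate addition started the reaction. Fluorescence at 525 nm excitation, 598 nm emission was recorded immediately and after 30 minutes.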
ClpP mod: qHTS Assay for Activators of ClpP | actives 1.9% (n = 340,000) | Potency, µM (highest dose often 57.5 µM), for inactives: at the top dose activity change, negative = active | AID 651965, 2013 | purified B. subtilis ClpP, FRET peptide cleavage, 20 min; active = well fitted falling curve with a large enough effect; inconclusive = small, poorly fitted or top-dose-only effect; inactive = no such curve, though single readings can be large or run the other way; also: potency is read from the fitted curve at half-maximal effect; the source files actives as falling curves though it sought activators and does not explain the sign; nearly all actives have a fitted effect of over 65% in size; many hits overshoot -100%
Target sequence (P80244 whole entry, looked up): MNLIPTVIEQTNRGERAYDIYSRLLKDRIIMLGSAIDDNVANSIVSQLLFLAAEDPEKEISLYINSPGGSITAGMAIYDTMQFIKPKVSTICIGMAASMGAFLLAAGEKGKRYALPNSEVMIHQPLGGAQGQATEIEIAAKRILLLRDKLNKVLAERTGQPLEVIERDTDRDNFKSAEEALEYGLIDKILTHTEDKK
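Purified B. subtilis ClpP, 10 microg/mL final in Tris/HCl pH8 with KCl, BSA, glycerol and Tween-20, cleaved an Abz/nitrotyrosine-quenched decapeptide. Fluorescence (ex 320, em 430) was read at 0 and 20 min at room temperature. Delta was normalized to 5.8 microM ADEP and DMSO/no-enzyme controls.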
gsp agonist: activates gsp, the McCune-Albright syndrome mutation; gsp mutant cells, cAMP HTRF, 30 min; control for the full effect not named in the record; Potency, µM (top dose mostly 76.9 µM), inactives show top-dose activation (cAMP increase), usual class: activators; actives 0.13% (n = 340,000); AID 624287; active = well fitted activation curve with a large enough effect; inconclusive = small, poorly fitted or top-dose-only effect, or another doubt; inactive = no such curve, though single readings can be large or run the other way; cell line not stated here;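 also: phosphodiesterase inhibitor Ro 20-1724 added with compounds to block cAMP breakdown; potency is read from the fitted curve at half-maximal effect; nearly all actives have a fitted effect of over 60% in size; about a fifth of the inactives were tested at one dose only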
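Cells in DMEM/10% FBS with G418 were pretreated with compounds in DMSO plus […] (300 uM stock) for 30 min at 37C. cAMP was measured by HTRF (cAMP-d2 plus anti-cAMP antibody-K) after 30 min at room temperature.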
D2 PAM: potentiates the human D2 dopamine receptor allosterically; P14416; DiscoveRx D2 beta-arrestin cells, luminescence, 90 min; 100% = 57 uM dopamine signal; potentiation, % (concentration not given with the values); actives 0.23% (n = 360,000); active = potentiation of 50% or more; inconclusive = 30% to 50%; inactive = 30% or less;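 also: compound concentration not given in the record; tested on top of an EC20 dose of dopamine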
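PathHunter beta-arrestin assay in DiscoveRx D2 cells. Compounds were added with an EC20 of dopamine (50 nM final) for 90 min at 37 deg C. Luminescence was read 1 h after detection reagent, with 57 uM dopamine as the EC100 control.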
TRPV1 PAM: potentiators of human vanilloid receptor 1 (TRPV1) | potentiation, % at 8.33 µM | AID 540277 | TRPV1-expressing cells, Fluo-8 calcium influx, capsaicin EC20 potentiation; host cell line not named in the record; control for the full effect not named in the record | actives 0.02% (n = 320,000) | Q8NER1; active means potentiation above 80%; inconclusive means 30% to 80%; inactive means below 30%; also: 0% is about no effect
Target sequence (Q8NER1 whole entry, looked up): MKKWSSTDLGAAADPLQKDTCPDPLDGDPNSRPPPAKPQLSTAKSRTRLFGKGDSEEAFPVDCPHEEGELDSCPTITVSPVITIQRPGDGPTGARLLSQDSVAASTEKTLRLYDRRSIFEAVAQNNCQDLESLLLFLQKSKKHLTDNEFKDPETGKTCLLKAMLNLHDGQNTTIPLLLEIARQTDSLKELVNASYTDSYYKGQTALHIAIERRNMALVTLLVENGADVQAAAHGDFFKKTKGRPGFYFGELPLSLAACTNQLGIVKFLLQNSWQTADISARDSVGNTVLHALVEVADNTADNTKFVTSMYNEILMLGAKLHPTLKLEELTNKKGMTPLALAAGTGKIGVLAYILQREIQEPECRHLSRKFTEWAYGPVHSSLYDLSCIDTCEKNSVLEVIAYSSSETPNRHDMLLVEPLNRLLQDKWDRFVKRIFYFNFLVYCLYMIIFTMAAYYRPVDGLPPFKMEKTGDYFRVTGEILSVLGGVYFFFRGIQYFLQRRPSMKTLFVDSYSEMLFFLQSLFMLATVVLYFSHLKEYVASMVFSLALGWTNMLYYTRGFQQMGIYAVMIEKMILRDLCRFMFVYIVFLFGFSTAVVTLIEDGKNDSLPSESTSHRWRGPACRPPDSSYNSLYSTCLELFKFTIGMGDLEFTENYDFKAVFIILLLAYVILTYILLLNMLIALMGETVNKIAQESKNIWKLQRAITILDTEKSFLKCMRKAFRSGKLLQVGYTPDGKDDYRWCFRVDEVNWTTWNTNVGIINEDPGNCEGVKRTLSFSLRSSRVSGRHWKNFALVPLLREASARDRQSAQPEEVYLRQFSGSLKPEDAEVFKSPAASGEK
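TRPV1-expressing cells were cultured overnight at 35.5C and loaded with Fluo-8 calcium dye for 40 to 90 min at room temperature. After a 10 s baseline, compound was added and calcium influx was read kinetically for 3 min (ex 480/em 520 nm).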
Menin-MLL FL inh: displaces fluorescein MLL peptide from human menin. Fluorescence polarization, fluorescein-MLL peptide displacement from menin. FP activity change, % at 61.4 µM. 290,000 tested, under 10 active. AID 1766; inconclusive = falling polarisation curve, or a change in total fluorescence; inactive = total fluorescence flat and polarisation flat or rising; no compound was filed as active; the % refers to the polarisation; negative = inhibition;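 also: % of control where 0% means no effect; inhibitors lower the polarisation; unlabelled MLL peptide was the positive control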
* hit, by the source's call; ? = inconclusive; · = no result given; & = joins results of further samples; [ ] = remark or other dose.

Every second line gives: gsp antagonist	Sfp inh	ClpP mod	gsp agonist	D2 PAM	TRPV1 PAM	Menin-MLL FL inh
- CC(NC(=O)CCC(=O)NCc1ccc(F)cc1)c1ccccc1 (stereo unspecified)
 : 10%	-1%	2.2%	10%	-2	13	-2.5
- Cn1cc(C(=O)C(=O)N2CCc3ccccc32)c2ccccc21
 : 0%	3%	0.6%	0%	-45	-15	·
- O=C(COC(=O)c1ccccn1)NNC(=O)c1ccc([N+](=O)[O-])cc1
 : 3%	·	·	2%[15.4 µM]	3	6	·
- Cc1c(C)c2c(OCC(=O)N[C@@H](CC(C)C)C(=O)O)cc3c(c2oc1=O)CCC(C)(C)O3
 : -6%	15%	·	?	-1	7	-4.1
- CCOC(=O)Cn1cnc2c(nnn2-c2ccc(OC)cc2)c1=O
 : 11%	2%	-5.2%	-63%[inhibitor]	-3	0	1.3
- O=C(Nc1nncs1)C12CC3CC(CC(Cl)(C3)C1)C2
 : 0%	4%	-2.0%	-2%[15.4 µM]	1	5	-2.2
- COCCn1c(SCC(=O)NCCc2ccccc2)nc2c([nH]c3ccccc32)c1=O
 : 0%	7%	-6.7%	3%[15.4 µM]	-8	10	·
- Cc1nnsc1SCCNC(=O)c1c(F)cccc1F
 : -2%	16%	-7.2%	-8%	2	-2	-0.9
- Cc1cc(S(=O)(=O)NCc2ccncc2)c(C)cc1Br
 : -4%	5%	-0.9%	?	11	-4	·
- CCN(CC(=O)Nc1ccccc1OC)C(=O)C1CC2C=CC1C2 (stereo unspecified)
 : 6%	2%	-1.7%	-13%	2	-14	3.4

Every second line gives: gsp antagonist	Sfp inh	ClpP mod	gsp agonist	D2 PAM	TRPV1 PAM	Menin-MLL FL inh
- CC(=O)c1ccc(N2CCN(C(=O)CCC(=O)Nc3ccc4nc(N5CCN(C)CC5)cc(C)c4c3)CC2)cc1
 : -12%	14%	·	21%	-7	18	-1.9
- CC12OC1C1(O)CCCC1=CC2=O (stereo unspecified)
 : ·	7%	·	·	·	7	-9.8
- O=C1OCCC1Sc1nc2ccccc2n1-c1ccccc1 (stereo unspecified)
 : 13%	3%	-0.5%	-17%	17	-21	3.6
- COc1ccc(C/C(C)=N/NC(=O)c2cc(C)oc2C)cc1
 : 5%	-7%	-1.9%	10%	-9	5	5.9
- Cc1ccc(C)c(N(C(=O)CNC(=O)c2ccco2)C(C(=O)NCC2CCCO2)c2ccccc2)c1 (stereo unspecified)
 : -4%	14%	·	8%[15.4 µM]	7	-8	-6.8
- Cc1ccc(S(=O)(=O)N2CCN(c3ncccn3)CC2)c(C)c1
 : -11%	3%	-3.5%	?	-2	25	0.4
- CCOC(=O)c1ccc(NC(=S)NCCCN2CCN(C3CCCCC3)CC2)cc1
 : 6%	0%	·	-10%[15.4 µM]	-11	7	-0.9
- CC(C)CN1CCN(Cc2cccn2-c2ccccn2)CC1CCO (stereo unspecified)
 : 8%	-13%	-4.2%	-42%[inhibitor]	-8	-2	-7.1
- O=C(CN1CCN(Cc2ccc3c(c2)OCO3)CC1)N1CCc2[nH]c3ccc(F)cc3c2C1
 : -5%	0%	-1.4%	?	-43	17	0.3
- O=C(NCCN1C(=O)S/C(=C\c2ccccc2F)C1=O)C1=COCCO1
 : -26%	·	3.7%	-3%[15.4 µM]	-9	-4	·

Every second line gives: gsp antagonist	Sfp inh	ClpP mod	gsp agonist	D2 PAM	TRPV1 PAM	Menin-MLL FL inh
- CC(=O)Nc1ccc(NC(=O)CSC2=NS(=O)(=O)c3cc(F)ccc3N2)cc1
 : 6%	·	·	13%[15.4 µM]	-11	5	·
- O=C(Nc1ccc2c(c1)OCO2)c1ccc(S(=O)(=O)N2CCCC2)cc1
 : -8%	2%	·	-3%[15.4 µM]	5	-5	-4.6
- CCOC(=O)/C=C1\SCC(=O)N1CC(=O)NC(C)c1ccccc1 (stereo unspecified)
 : 11%	14%	0.4%	3%	1	2	12
- Cc1ccc(Nc2nnc(C)c3ccccc23)c(C)c1
 : -3%	·	-1.0%	?	-16	·	·
- COc1ccc(/C=N/NC(=O)CNC(=O)c2ccc3c(c2)OCCO3)c(C(=O)O)c1OC
 : 5%	13%	-6.2%	-4%	-5	0	-4.5
- Cc1ccc(N2C(=O)NC(NC(=O)C(C)(C)C)(C(F)(F)F)C2=O)cc1C (stereo unspecified)
 : 10%	16%	-4.8%	-1%	-18	3	0.9
- CCc1ccccc1N(C(=O)c1snc(C(N)=O)c1N)C(C(=O)NCC1CCCO1)c1ccc(OC)c(OC)c1 (stereo unspecified)
 : -3%	22%	·	-13%[15.4 µM]	-2	1	-4.0
- CC(C)(C)OC(=O)N1CCCC1C(=O)N1CCc2ccccc21 (stereo unspecified)
 : -2%	10%	0.0%	0%	-12	-7	7.8
- O=C(COC(=O)c1cccnc1)Nc1ccccc1
 : 5%	19%	2.0%	-8%	-6	6	-0.8
- COc1ccc(-c2nn(-c3ccccc3)cc2CO)cc1OC
 : -9%	5%	11µM*	10%	-5	5	0.4

Every second line gives: gsp antagonist	Sfp inh	ClpP mod	gsp agonist	D2 PAM	TRPV1 PAM	Menin-MLL FL inh
- Fc1ccc(-c2[nH]ncc2-c2nnnn2-c2ccccc2)c(F)c1
 : -10%	-7%	2.2%	-22%	7	-2	8.1
- COc1ccc(C(=O)NCC(c2cccs2)N2CCc3ccccc32)c(OC)c1 (stereo unspecified)
 : -15%	·	-9.1%	0%	5	3	·
- Cc1c(CC(=O)NCCCCCC(=O)O)c(=O)oc2cc3occ(-c4ccccc4)c3cc12
 : -20%	-14%	·	-1%	-2	0	-0.7
- CCCCc1ccc(NC(=O)CN(C)CC(=O)Nc2ccccc2Cl)cc1
 : -15%	2%	·	-26%	-2	-3	-0.5
- Cc1ccc(Nc2nc(N3CCOCC3)nc(N3CCOCC3)n2)cc1
 : -8%	5%	1.0%	-20%	16	15	-1.4
- Cc1ccc(C2N(c3cccc(Cl)c3)C(=O)C3CCCN32)o1 (stereo unspecified)
 : -2%	2%	2.1%	26%	-3	-8	-0.7
- O=C(N/N=C/c1ccco1)c1cc(-c2cccs2)[nH]n1
 : -12%	8%	-2.3%	-101%[inhibitor]	-3	-1	7.6
- O=C(Nc1nc(N2C(=O)c3ccccc3C2=O)n(-c2ccccc2)n1)c1ccc(Cl)cc1
 : -5%	-15%	-0.8%	-19%	-18	7	-1.7
- CSc1cccc(NC(=O)C2CCCN(c3ncnc4c3nc3n4CCCCC3)C2)c1 (stereo unspecified)
 : -22%	2%	-0.2%	-20%	-6	16	-2.9
- Cc1ncc([N+](=O)[O-])n1CC(=O)NC(C)(C)C
 : 9%	-7%	-1.1%	-13%[15.4 µM]	-1	?	4.5

Every second line gives: gsp antagonist	Sfp inh	ClpP mod	gsp agonist	D2 PAM	TRPV1 PAM	Menin-MLL FL inh
- O=C1[C@H]2[C@H](C=CC[C@H]2C(=O)N2CCOCC2)CCN1Cc1ccc(Cl)c(Cl)c1
 : 2%	·	-0.9%&0.0%	·	-5	·	·
- C=C(C)C(=O)Oc1ccc(N2C(=O)CCC2=O)cc1
 : -8%	-7%	1.3%	-1%	-15	-20	-0.1
- COC(=O)c1cccc(NC(=O)CN2C(=O)c3ccccc3C2=O)c1
 : 3%	21%	-7.5%	2%	-5	?	-1.6
- O=C(Cn1[nH]c(=O)c2ccccc2c1=O)OCC(=O)c1ccccc1
 : -11%	·	5.9%	18%	-3	-4	·
- CCc1ccc(NC(=O)CSc2nnc(-c3cnccn3)n2Cc2ccco2)cc1
 : 27%	?	4.4%	?	1	-12	6.3
- COc1ccccc1Nc1nn2c(=O)c3ccc(C(=O)NCc4cccnc4)cc3nc2s1
 : ·	-21%	·	·	·	-5	-0.3
- CC(C)CCN1CCC[C@]2(N[C@H](c3ccc(C(F)(F)F)cc3)[C@@H]3C(=O)N(Cc4ccccc4)C(=O)[C@@H]32)C1=O
 : ·	·	0.0%	-23%	-7	·	·
- Cc1ccc(-c2nn3c(-c4ccco4)nnc3c3ccccc23)cc1S(=O)(=O)N1CCOCC1
 : ·	4%	·	·	·	6	4.1
- O=C(Cn1c(=O)c(=O)n(Cc2ccccc2)c2ccc(Cl)cc21)NCC1CCCO1 (stereo unspecified)
 : -20%	16%	-5.4%	7%	-23	0	1.1
- CCS(=O)(=O)N1Cc2ccccc2CC1C(=O)Nc1ccc(NC(C)=O)cc1 (stereo unspecified)
 : -10%	9%	0.1%	7%	-5	-3	6.6

Every second line gives: gsp antagonist	Sfp inh	ClpP mod	gsp agonist	D2 PAM	TRPV1 PAM	Menin-MLL FL inh
- CCSc1nnc(NC(=O)c2ccc3ccccc3n2)s1
 : 0%	?	7.2%	-22%	-16	9	-6.0
- CN1C2CCC1CC(NS(=O)(=O)c1ccc(C#N)cc1)C2 (stereo unspecified)
 : 21%	9%	0.8%	6%	6	4	·
- COc1ccc(NC(=O)c2cc(-c3ccccc3OC)on2)cc1
 : 1%	-24%	13%	10%	-10	-4	0.0
- CCOC(=O)C1(Cc2cccc(OC)c2)CCCN(C(=O)CCc2cccnc2)C1 (stereo unspecified)
 : -5%	0%	-2.9%	-1%	-3	-10	-0.1
- CC(C)NC(=O)CCc1nnc(Cc2cccc(C(F)(F)F)c2)o1
 : 9%	7%	·	-16%[15.4 µM]	-5	1	-0.4
- Cc1ccc(/C=C/C(=O)NCc2ccc3c(c2)OCO3)o1
 : 7%	-91%	-10%	4%	11	-4	0.9
- CCOC(=O)COc1ccc2c(=O)c(-c3ccc(OC)c(OC)c3)c(C(=O)OCC)oc2c1
 : -16%	23%	·	10%[15.4 µM]	0	·	3.0
- Cn1cnc2c1c(=O)n(Cc1ccc(F)cc1Cl)c(=O)n2C
 : 13%	12%	0.0%	-1%	-7	0	-1.1
- NC(=O)c1cc(S(=O)(=O)NCCc2ccc(S(N)(=O)=O)cc2)cs1
 : 4%	22%	-0.4%	?	-4	4	8.9
